Screening data deposited in PubChem by several laboratories.
Ecoli growth: E. coli growth inhibition; OD600 absorbance (test concentration not listed); Escherichia coli growth, OD600, 23 h; stronger effect = lower value; AID 1053175; 330,000 compounds, 0.21% hits;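 active = OD600 absorbance below the run mean of sample wells minus 3.6 SD, in any replicate, cut at about 0.56 in these data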;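 note: stock transfer was 300 nL into about 60 µL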
rRNA inh HTS: selective bacterial rRNA inhibition in E. coli; E. coli WT GFP vs humanized-ribosome RFP mutants, fluorescence, 24 h; stronger effect = lower value; DMSO median 0, no signal -100; GFP signal change (wild-type ribosome), % (no concentration beside the values); 350,000 compounds, 1.6% hits; AID 720706;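 active = significant combined selectivity score with lowered wild-type GFP, culture density cut under 30%, mutant RFP and density less affected; inactive = any of these conditions unmet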; note: one replicate is shown; some compounds called inactive have numbers as strong as hits
A1 inh: inhibitors of the anti-apoptotic protein A1, read as caspase activation; 330,000 compounds, 0.066% hits; caspase activation, % (no concentration beside the values); MEF A1-2A-BIM cells, Caspase-Glo 3/7 luminescence, 3 h; percent of clofoctol response, vehicle zero; AID 2462;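 active = over half of replicate activation scores above 10%, or exactly half above 10 with the replicate mean above 10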;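 note: wells of about 30 µL received 50 nL stock; many hits fall short of the cut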
T cruzi inh: blocks replication of Trypanosoma cruzi; inhibition, % (concentration not given with the values); T. cruzi beta-gal in NIH3T3, luminescence, 90 h; AID 1885; 300,000 compounds, 1.4% hits;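 active = mean inhibition across valid replicates above about 55%, limit read from the data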;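 note: signal also drops with host cell toxicity which is not excluded here; 0% = plate median of DMSO wells and 100% = zero luminescence signal; higher percent means less beta-gal luminescence so fewer parasites; stock transfer was 50 nL into about 50 µL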
MLL AF4-AF9 inh: blocks AF4 peptide binding to human AF9; AlphaScreen, biotin-AF4 peptide binding to FLAG-AF9; inhibition, % at 10 µM; 350,000 compounds, 0.47% hits;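 active = every replicate reaching a set inhibition limit, whatever the replicate mean, cut at about 25% in these data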;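 note: 0% = plate neutral control median and 100% = total signal loss; the record names both 10 and 1 µM as test concentration; the first replicate is given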
Target sequence (P42568 whole entry, looked up): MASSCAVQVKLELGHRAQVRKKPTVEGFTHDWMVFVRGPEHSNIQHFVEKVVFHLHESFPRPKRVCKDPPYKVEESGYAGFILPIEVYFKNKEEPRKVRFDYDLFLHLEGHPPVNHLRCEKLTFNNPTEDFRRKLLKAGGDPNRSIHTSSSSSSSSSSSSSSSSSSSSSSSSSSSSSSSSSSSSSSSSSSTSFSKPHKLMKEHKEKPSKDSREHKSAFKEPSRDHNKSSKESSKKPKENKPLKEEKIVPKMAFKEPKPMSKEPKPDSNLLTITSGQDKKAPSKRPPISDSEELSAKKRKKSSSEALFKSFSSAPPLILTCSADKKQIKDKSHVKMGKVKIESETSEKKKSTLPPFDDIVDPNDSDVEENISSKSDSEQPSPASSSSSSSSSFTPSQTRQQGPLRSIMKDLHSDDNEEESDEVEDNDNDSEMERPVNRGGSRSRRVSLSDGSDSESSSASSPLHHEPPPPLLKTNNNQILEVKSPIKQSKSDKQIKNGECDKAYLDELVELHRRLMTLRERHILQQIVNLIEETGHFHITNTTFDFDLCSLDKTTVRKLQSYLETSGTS
FGF22 binding: shifts melting point of recombinant human FGF22. 340,000 compounds, 1.5% hits. recombinant FGF22 thermal shift, SYPRO orange fluorescence; percent of sucrose octasulfate shift, DMSO zero. Q9HCT0. calls only at 9.99 µM;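 active = melting point raised past a set limit in the mean and every replicate; three in four hits are not shown here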
Target sequence (Q9HCT0 whole entry, looked up): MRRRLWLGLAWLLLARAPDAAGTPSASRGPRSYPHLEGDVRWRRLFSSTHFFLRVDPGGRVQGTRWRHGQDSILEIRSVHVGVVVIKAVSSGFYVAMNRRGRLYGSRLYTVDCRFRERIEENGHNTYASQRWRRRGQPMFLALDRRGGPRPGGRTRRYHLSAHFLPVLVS
Beta cell apopt: blocks beta cell apoptosis; INS-1E cytokine-induced death, ATP luminescence, 48 h; percent of positive-control rescue, neutral wells zero; protection from apoptosis, % (test concentration not listed); 300,000 compounds, 0.8% hits;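 active = all replicates at 75% or more, or half of them and the mean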;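 note: 0% = cytokine-treated negative control wells and 100% = positive control rescue; higher means more ATP so stronger rescue from cytokine killing; wells of about 40 µL received 100 nL stock; the first replicate is given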
UCH37 DUB inh: human UCH37 deubiquitinating enzyme inhibition. purified proteasome/UCH37, Ub-AMC cleavage fluorescence. inhibition, % (concentration not given with the values). 330,000 compounds, 0.33% hits. AID 588478. Q9Y5K5;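 active = mean of two replicates above 20%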;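 note: 0% = compound-free wells with enzyme and 100% = wells lacking proteasome; stock transfer was 100 nL into about 20 µL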
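Test system – human UCH37 enzyme supplied as purified proteasome complex · Incubation – 30 min preincubation with enzyme, 25 min cleavage at room temperature · Detection – AMC fluorescence from Ub-AMC cleavage, excitation 355 nm, emission 460 nm · Benchmarks – no-proteasome wells (full inhibition) and compound-free wells (no inhibition)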
rRNA inh HTS OD600: also measured in rRNA inh HTS; calls as there; OD600 change, %; measured here: OD600 growth;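 optical density of the mix in the first replicate; 0 = DMSO median and -100 = no signal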
rRNA inh HTS RFP: recorded beside rRNA inh HTS, whose call it bears; RFP signal change, %; measured here: RFP humanized mutant strains;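 first replicate; 0 = DMSO median and -100 = no signal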
Numbers without * were called inactive; i = inactive; . = no result given.

Order of values – rRNA inh HTS OD600	UCH37 DUB inh	rRNA inh HTS RFP	Ecoli growth	MLL AF4-AF9 inh	T cruzi inh	Beta cell apopt	A1 inh	FGF22 binding	rRNA inh HTS
> COc1ccc(N=C2SC(C(=O)N3CCN(c4ccc([N+](=O)[O-])cc4)CC3)CC(=O)N2C)cc1 (centres undefined)
→ -4	6.6	-1.3	0.7	6.5	17	-1	-0.6	i	-10
> COc1cc(C)c(NC(c2ccccc2)c2ccccc2)cc1OC
→ -18	3.2	-11	0.66	9.7	3	23	0.3	i	-19
> COc1ccc(N(C(=O)c2ccco2)C(C(=O)NC2CCCC2)c2ccncc2)cc1OC (centres undefined)
→ 0	-1.8	0.6	0.71	3.0	-13	2	0.6	i	-2
> CC(NC(=O)Cc1cccs1)c1ccncc1 (centres undefined)
→ .	2.9	.	0.67	.	-29	10	0.7	.	.
> O=C(Cn1c(=O)n(Cc2ccco2)c(=O)c2c3c(sc21)CCCC3)Nc1ccccc1
→ .	1.6	.	0.76	.	18	.	1.2	.	.
> CC(C)c1ccc(S(=O)(=O)NC2CCCC2)cc1
→ -8	-2.2	-1.7	0.69	-3.4	4	7	-0.1	i	-1
> O=C(CS(=O)(=O)c1ccccc1)Nc1ccc(S(=O)(=O)Nc2ncccn2)cc1
→ 19	0.7	-0.4	0.69	-0.6	-10	1	0.6	i	20
> C/C(=N/NS(=O)(=O)c1cc(C)ccc1C)c1ccncc1
→ 6	.	-2.8	.	-1.4	-6	-11	0.1	i	4
> CCC(C)N=CC1=C(O)CC(c2ccccc2)CC1=O (centres undefined)
→ .	1.4	.	0.71	.	-21	-5	-0.2	.	.
> CCN(CC(=O)Nc1c(F)cccc1F)C(=O)c1ccc(C)c(S(=O)(=O)N2CCCCC2)c1
→ .	5.6	.	0.65	.	0	-1	-0.4	.	.
> COc1ccc(NS(=O)(=O)c2ccc(C(=O)N3CCCCCC3)cc2)cc1
→ -6	3.8	-2.2	0.72	7.7	.	7	-0.2	i	3
> COc1cc(S(=O)(=O)N2CCN=C2c2ccccc2)ccc1F
→ .	1.4	.	0.74	.	-12	0	-0.9	.	.
> COc1cc(C(=O)OCCNC(=O)c2cccnc2)cc(OC)c1OC
→ 8	-1.4	0.7	0.68	-0.9	.	-2	-0.3	i	6
> CC1CCCC(C)N1C(=O)c1ccccc1Nc1ccc(SC(F)F)cc1 (centres undefined)
→ .	1.8	.	0.68	.	2	23	0.6	.	.
> O=c1[nH]c(C2CCN(S(=O)(=O)Cc3ccccc3)CC2)nc2c1nnn2Cc1ccccc1Cl
→ -3	0.3	4.4	0.71	0.1	13	3	-0.3	i	-6
> O=C1OC(N2C(=O)CC[C@H]2C(=O)Nc2ccc(Br)cc2F)c2ccccc21 (some centres undefined)
→ -5	0.7	-5.0	0.72	-2.4	-1	.	0.5	i	3
> Cc1nc(C)c(C(=O)NNS(=O)(=O)c2ccc3ccccc3c2)s1
→ 5	3.3	0.2	0.68	-5.2	-22	8	0.1	i	1
> Nc1nc(-c2ccc(Cl)cc2)c(N=Nc2ccc(S(=O)(=O)N3CCOCC3)cc2)s1
→ -18	-11	-1.2	0.71	5.2	59*	33	-0.1	i	-9
> COc1ccc(NS(=O)(=O)c2cccc(C(=O)NNC(=O)c3ccc(NC(C)=O)cc3)c2)cc1
→ -1	.	3.4	.	-14	0	-2	-0.1	i	-4
> O=C(Nc1cccc2ccccc12)c1nn(C23CC4CC(CC(C4)C2)C3)cc1[N+](=O)[O-]
→ -4	4.6	-13	0.73	-1.2	41	3	0.1	i	-7

An excerpt of these results, tab-delimited.
molecule	rRNA inh HTS OD600	UCH37 DUB inh	rRNA inh HTS RFP	Ecoli growth	MLL AF4-AF9 inh	T cruzi inh	Beta cell apopt	A1 inh	FGF22 binding	rRNA inh HTS
C/C(=N/NS(=O)(=O)c1cc(C)ccc1C)c1ccncc1	6	.	-2.8	.	-1.4	-6	-11	0.1	i	4
CCC(C)N=CC1=C(O)CC(c2ccccc2)CC1=O (centres undefined)	.	1.4	.	0.71	.	-21	-5	-0.2	.	.
CCN(CC(=O)Nc1c(F)cccc1F)C(=O)c1ccc(C)c(S(=O)(=O)N2CCCCC2)c1	.	5.6	.	0.65	.	0	-1	-0.4	.	.
COc1ccc(NS(=O)(=O)c2ccc(C(=O)N3CCCCCC3)cc2)cc1	-6	3.8	-2.2	0.72	7.7	.	7	-0.2	i	3

Other structures
Order of values – rRNA inh HTS OD600	UCH37 DUB inh	rRNA inh HTS RFP	Ecoli growth	MLL AF4-AF9 inh	T cruzi inh	Beta cell apopt	A1 inh	FGF22 binding	rRNA inh HTS
> COc1cc(C2NCCC(=O)C2(C)C)cc(OC)c1OC (centres undefined)
→ .	0.2	.	0.65	.	-7	-1	0.2	.	.
> CCC(=O)N(Cc1cc2cc(OC)ccc2[nH]c1=O)c1cccc(C)c1
→ .	-66	.	0.7	.	6	3	1.0	.	.
> CCOc1ccc(-n2c(C)cc(C(=O)CCl)c2C)cc1
→ -2	3.2	4.5	0.69	10	86*	36	0.4	i	-2
> O=C(C1CCCN1S(=O)(=O)c1ccc(Cl)cc1)N1CCCCC1 (centres undefined)
→ 7	-0.9	2.9	0.7	-2.3	-2	-2	0.2	i	3
> O=c1[nH]c(=O)c2nc3c4ccccc4c4ccccc4c3nc2[nH]1
→ -1	.	-0.4	.	-1.5	-28	40	2.6	i	8
> Cc1cccc(-c2ccc3c(c2)C2CC3CCN2C(=O)OCc2ccccc2)c1 (centres undefined)
→ 1	4.1	0.3	0.72	-4.8	.	.	.	i	-5
> Cc1ccc(C(=O)NCC2(c3ccccc3)CCCC2)cc1
→ .	1.1	.	0.73	.	-1	8	-0.2	.	.
> Cc1c(C(=O)NC2CCCc3ccccc32)cccc1[N+](=O)[O-] (centres undefined)
→ -2	2.5	-2.7	0.68	-0.2	-3	1	0.3	i	6
> O=C(NC(=O)c1cccc(OC(F)(F)C(F)F)c1)OC1CCS(=O)(=O)C1 (centres undefined)
→ .	3.1	.	0.68	.	-1	-1	1.6	.	.
> Cc1cc(OCC(=O)N(Cc2ccccc2)C2CCS(=O)(=O)C2)ccc1Cl (centres undefined)
→ -18	1.7	-1.6	0.67	-0.6	4	-7	0.4	i	-4
> O=C(CSc1ccc2nnc(-c3ccncc3)n2n1)NCC1CCCO1 (centres undefined)
→ 9	-3.4	-0.6	0.7	9.3	1	.	0.2	i	8
> CC(C)n1cnnc1SCC(=O)Nc1cccc(S(=O)(=O)N(C)c2ccccc2)c1
→ 3	0.5	-2.1	0.67	-2.2	-2	-6	-0.4	i	9
> COCCN(C(=O)COC(=O)c1ccc(C=O)cc1)c1c(N)n(Cc2ccccc2)c(=O)[nH]c1=O
→ 28	0.2	-0.2	0.69	1.8	-12	.	-0.9	i	16
> O=C(COc1ccccc1Cl)c1ccc2c(c1)CCCC2
→ .	-3.3	.	0.73	.	0	-1	-0.5	.	.
> O=C(C(Cc1ccc(Cl)cc1)NS(=O)(=O)c1ccccc1)N1CC[C@@]2(O)CCCC[C@H]2C1 (some centres undefined)
→ .	0.6	.	.	.	-10	-6	-0.8	.	.
> CC1CCCC(C)N1C(=O)CN1C(=O)c2ccccc2S1(=O)=O (centres undefined)
→ .	2.3	.	0.68	-2.9	.	.	.	i	.
> Cc1cc(C)c(C)c(OCC(=O)NCC2CCCO2)c1 (centres undefined)
→ .	2.5	.	0.66	.	8	0	-0.2	.	.
> COC(=O)[C@H](CCSC)NC(=O)NCCC1=CCCCC1
→ .	0.9	.	0.7	.	-4	-5	-0.1	.	.
> CCN1CCN(C(C(=O)NC2CCCC2)c2ccc(Cl)cc2)CC1 (centres undefined)
→ 9	4.2	-2.4	0.74	-0.8	-7	.	0.5	i	-1
> CCCCn1nnc(NC(=S)NC(=O)c2ccc(-c3cccc(Cl)c3Cl)o2)n1
→ .	6.2	.	0.73	.	1	.	-0.4	.	.
> CN(C)C(=O)CSc1nnc(CCCCCNC(=O)OC(C)(C)C)o1
→ .	1.9	.	0.69	.	-7	-2	0.2	.	.
> CSc1nsc(SC)c1C(=O)Nc1ccc(C(C)(C)C)cc1
→ 8	5.0	0.5	0.69	-5.4	-2	6	0.2	i	17
> CC(C)(C)C1(O)CC(C(F)(F)F)=NN1C(=O)CCc1ccccc1 (centres undefined)
→ -7	3.4	-2.2	0.7	-2.5	-3	-6	-1.1	i	-3
> CC(=O)Oc1c(Cl)cc(N(C(C)=O)S(=O)(=O)c2ccccc2)c2ccccc12
→ -1.9*	5.0	2.4*	0.7	-1.7	-11	95*	0.4	i	-37*
> COc1ccc(S(=O)(=O)Nc2ccc(F)c(Cl)c2)cc1OC
→ .	1.0	.	0.7	.	0	-18	0.1	.	.
> COC(=O)c1ccc(OC(=O)CCS(=O)(=O)c2ccc(C)cc2)cc1
→ 1	-0.3	-0.1	0.63	9.7	-10	-4	-0.2	i	1
> O=S(=O)(Nc1cccc(CCc2ccccn2)c1)c1ccc(Cl)cc1
→ -15	5.9	5.8	0.64	-1.6	23	-4	0.2	i	-9
> CCOC(=O)c1cccc(N2C(=O)C3C(C2=O)C2C=CC3C23CC3)c1 (centres undefined)
→ .	3.3	.	0.67	.	-12	1	0.9	.	.
> CC(C)CN(C(=O)c1cc([N+](=O)[O-])cc([N+](=O)[O-])c1)C1CCS(=O)(=O)C1 (centres undefined)
→ 11*	0.3	-5.5*	0.69	-1.4	57*	-5	-0.1	i	-16*
> CCc1ccc(CNC(=O)CCCn2c(=O)c3cccn3c3cccnc32)cc1
→ -6	-29	-0.1	0.68	-0.1	12	6	-0.2	i	-5
> c1ccc2[nH]c(CN3CCCCCC3)nc2c1
→ -2	1.0	-0.9	0.72	0.0	-10	3	1.8	i	8
> O=c1nc(-c2ccccc2)c2cc(Br)ccc2[nH]1
→ 1	-48	-1.9	0.64	3.0	0	1	0.0	i	8
> COC(=O)c1sccc1-n1cccc1C(=O)C(=O)N1CCCCC1
→ .	2.9	.	0.72	.	0	-2	1.1	.	.
> O=C(Nc1ccccc1N1CCCC1)c1ccc(N2CCCC2=O)cc1
→ 1	2.5	-2.2	0.71	-0.6	-4	-2	-0.4	i	-3

This is a subset. The share of hits here may be higher or lower than overall.
